Vaccinia mCherry: qHTS for Stage-Specific Inhibitors of Vaccinia Orthopoxvirus: mCherry Reporter Primary qHTS; Vaccinia virus mCherry reporter infection, fluorescence; about a quarter of the inactives have no number; Potency, µM (doses to about 36.5 µM), for the others: at the highest dose activity change, negative = inhibition, hits mostly inhibitors; 310,000 compounds, 0.63% hits; AID 720579, 2013; active = well fitted inhibition curve with a large enough effect; inconclusive = small, poorly fitted or top-dose-only effect; inactive = no such curve, though single readings can be large or run the other way; tested in A549 cells; note: nearly all actives have a fitted effect of over 35% in size; inactives centre near -10
VACV Venus inh: qHTS for Stage-Specific Inhibitors of Vaccinia Orthopoxvirus: Venus Reporter Primary qHTS; 330,000 compounds, 0.46% hits; AID 720580, 2013; Potency, µM (titrated, usually from 36.5 µM), for inactives: at the top dose activity change, negative = inhibition, most hits filed as inhibitors; Vaccinia virus Venus reporter expression, fluorescence; active means well fitted inhibition curve with a large enough effect; inconclusive means small, poorly fitted or top-dose-only effect; inactive means no such curve, though single readings can be large or run the other way; tested in A549 cells; note: nearly all actives have a fitted effect of over 30% in size; inactives centre near -10
* = called active by the depositor; i = inactive; ? = inconclusive; . = not tested or not shown; & = joins results of further samples; [ ] = dose if it differs, or a comment. % is set by controls: 0 for no effect and ±100 for the full control effect; potency is the fitted concentration of half-maximal effect.

SMILES	Vaccinia mCherry	VACV Venus inh
CC(=O)OC1C2CCC1C(N1CCCCC1)CC2 (stereo not given)	i	-10.0%
c1ccc(COc2ccccc2CNc2nn[nH]n2)cc1	i	1.9%
O=C(CN1C(=O)NC(Cc2ccccc2)(Cc2ccccc2)C1=O)NCC1CCCCC1	-20.5%	-13.4%
Cn1ccc2c(OCC(=O)NCc3ccc(F)cc3)cccc2c1=O	-27.5%	?
COc1ccc(C2(CNC(=O)c3cc([N+](=O)[O-])cc([N+](=O)[O-])c3)CCCC2)cc1OC	-11.1%	-0.7%
Cc1ccc(C(=O)CCC(=O)Nc2cccc(C)c2)cc1	-17.6%	-13.5%
CCN(C(=O)Cn1cnc2onc(-c3ccc(F)cc3)c2c1=O)c1cc(C)ccc1C	-7.5%	-9.7%
Oc1cccc2ccc(/C=C/c3ccccc3Cl)nc12	?	-24.9%
COc1ccccc1C(=O)C1CCCN(C(=O)C2=CC(=O)CC(C)(C)O2)C1 (stereo not given)	-17.4%	-8.0%
Cc1ccc(-n2nc(C)cc2NC(=O)c2ccc(C)s2)cc1	-17.8%	-2.8%
CC(C)Cn1c(C(C)NC(=O)Cc2ccccc2)nc2ccccc21 (stereo not given)	-9.8%	-14.0%
Cc1ccc(C)c(N2N=C(C(=O)O)CCC2=O)c1	i	-1.0%
COc1ccc(S(=O)(=O)N2CCCC2CNC(=O)C(=O)NCc2cccs2)cc1 (stereo not given)	-20.2%	-2.0%
CC(C)Oc1ccc(C(=O)NN2C(=O)NC3(CCCCC3)C2=O)cc1	-5.3%	-10.2%
COC(=O)C1(C(=O)OC)C[C@H](c2ccccc2)N(Cc2ccccc2OC)[C@@H]1c1ccccc1	?	-4.9%
Cn1ncc([N+](=O)[O-])c1C(=O)Nc1nc2ccccc2n1CCN1CCCCC1	.	-4.8%
O=C(c1cccs1)N1CCC(C(=O)O)(c2ccccc2)CC1	i	0.5%
O=C(Nc1nc2ccc(Cl)cc2s1)c1ccc(S(=O)(=O)N2CCCC2)cc1	-21.9%	-1.3%
CC1(C)CC(=O)C=C(Nc2ccc(OCC(F)(F)C(F)F)cc2)C1	.	-28.1%
CCC1CCCCN1C(=O)COC(=O)c1cc2ccccc2cc1O (stereo not given)	.	-5.6%
CCc1ccccc1NC(=O)c1cnc2sc(N3CCOCC3)nn2c1=O	-7.7%	-6.7%
O=C(O)CC1SC(=O)N(CC(=O)c2ccccc2)C1=O (stereo not given)	i	-4.7%
O=C(Cn1cc(C(=O)c2ccccc2)c2ccccc21)NCc1ccco1	-18.1%	-24.8%
CCOC(=O)C1=C(O)C(=O)NC(c2ccccc2)=C(OCC)C1	-8.8%	-7.3%
O=C(CSc1nc2c(c(=O)[nH]1)CN(Cc1ccc3c(c1)OCO3)CC2)Nc1ccccc1Cl	-5.6%	4.1%
CC(=O)Nc1ccc(NC(=O)c2nc(-c3ccccc3)oc2C)cc1	i	-7.2%
O=C(Cc1cccc(NC(=O)C2CCCN(C(=O)CCc3ccccc3)C2)c1)Nc1ccc(C(=O)N2CCOCC2)cc1 (stereo not given)	i	-10.6%
COc1ccc(OC)c(/C=C/C(=O)N2CCCc3ccccc32)c1	i	-12.4%
COc1ccc(CNC(=O)C2CCN(S(=O)(=O)c3ccccc3)CC2)cc1	i	-14.4%
Cc1cnc(C(=O)OCC(=O)c2c[nH]c3ccccc23)cn1	-19.4%	-15.5%
Cc1ccc(C)c(OCc2cc(C(=O)N3C[C@@H](C)O[C@@H](C)C3)no2)c1	i	-6.3%
Cc1nc2ccccc2c(=O)n1-c1nccs1	i	5.3%
COc1ccc(N2CCN(C3CCCN(Cc4cccc(C)c4)C3)CC2)cc1 (stereo not given)	?	-4.3%
CCc1cccc(NC(=O)Cn2nc(-c3ccc(OC)cc3)ccc2=O)c1	-12.1%	-0.4%
CCOc1ccccc1C(=O)N[C@H](C(=O)NCc1ccccc1)C(C)C	-6.7%	-2.4%
COCCNC(=O)Nc1ccc2nc(C)sc2c1	-8.7%	1.9%
COC(=O)c1ccc2ccn(CC(=O)NC(C)C)c2c1	-22.1%	-9.7%
COc1ccc(-c2nnc(SCC(=O)Oc3cccc(C)c3C)o2)cc1	-8.7%	-1.8%
Cc1cc(NC(=O)c2cc(-c3ccc(Br)cc3)on2)no1	i	-14.7%
Cc1onc(-c2ccccc2Cl)c1C(N)=O	.	-1.4%
N/C(=N\c1nc2ccccc2o1)NC(=O)c1ccccc1F	-9.9%	-1.0%
Cc1ccc(OCCCC(=O)NC2CCCCC2)cc1	-6.3%	-20.4%
COc1ccc(CNC(=O)COC(=O)c2ccc(S(=O)(=O)N3CCOCC3)cc2)cc1	-1.3%	8.2%
CN(C)c1nc(N(C)C)nc(N(C)C)n1	i	-12.9%&-17.7%
O=C(NCCCCCCNC(=O)OCc1ccccc1)OCc1ccccc1	-2.2%	-5.1%
CC/C(=N\OC(=O)c1ccc(OC(C)C)cc1)c1ccc(C)cc1	-11.6%	-14.7%
COc1cccc(CNC(=O)c2ccc(-c3nc(CS(=O)(=O)c4ccccc4)c(C)o3)cc2)c1	-6.2%	-9.0%
O=C(COC(=O)c1c(F)cccc1Cl)NC1CCCC1	i	-5.9%

Complete entries from above.
Cc1onc(-c2ccccc2Cl)c1C(N)=O reads Vaccinia mCherry: .; VACV Venus inh: -1.4%
COc1ccc(-c2nnc(SCC(=O)Oc3cccc(C)c3C)o2)cc1 reads Vaccinia mCherry: -8.7%; VACV Venus inh: -1.8%

Going on with the list:
SMILES	Vaccinia mCherry	VACV Venus inh
COc1ccc(N(CC(=O)NCc2cccs2)S(=O)(=O)c2c(C)nn(C)c2C)cc1	8.3%	7.0%
CCOc1ccc(NC(=O)C2CCCN(c3ccc(Sc4ccc(C)cc4)nn3)C2)cc1 (stereo not given)	-10.5%	-14.7%
COc1ccc2[nH]cc(CCNS(=O)(=O)Cc3ccccc3)c2c1	-10.5%	-10.2%
COc1cccc(C(=O)Nc2nc3ccc(S(C)(=O)=O)cc3s2)c1	-13.0%	-16.3%
CCN1CCN(Cc2c(O)ccc3c2O/C(=C\C=C\c2ccccc2OC)C3=O)CC1	5.7%	40.4%[activator]
COC(=O)c1ccc(COC(=O)CNS(=O)(=O)c2ccc(C)cc2)cc1	-8.9%	-7.4%
COc1ccccc1N1CCN(C(c2cccs2)C(C)NC(=O)c2cccs2)CC1 (stereo not given)	-23.0%	-7.9%
CC(C)C(=O)Nc1cccc(COc2ccccc2CN(Cc2ccccc2)C(=O)OC(C)(C)C)c1	-11.2%	-4.9%
O=C(CSc1ccc(Br)cc1)NCC(c1cccs1)N1CCOCC1 (stereo not given)	i	-16.7%
CCOc1ccc(C(C)=O)cc1COc1ccc(-n2cnnn2)cc1	.	2.1%
O=C(O)CCC(=O)N1CCc2cc(S(=O)(=O)NCc3cccs3)ccc21	-6.6%	-8.0%
COc1ccc(C(=O)NCC(c2ccco2)S(=O)(=O)c2cccs2)cc1 (stereo not given)	-8.9%	-3.3%
CCc1nn2c(=O)cc(COC(=O)c3ccccc3)nc2s1	-0.5%	4.4%
CCC1(C)NC(=O)N(/N=C/c2cc(OC)c(O)c(OC)c2)C1=O (stereo not given)	-8.6%	-6.3%
COc1ccc(C)cc1NC(=O)C(Sc1nnc(Nc2ccccc2F)s1)c1ccccc1 (stereo not given)	-12.0%	-28.9%
Cc1cc(C)cc(NC(=S)NCCc2ccc(S(N)(=O)=O)cc2)c1	i	-5.7%
O=C(NC(c1ccccc1)c1ccccc1)c1ccc(Br)o1	-11.6%	-10.7%
COc1ccc(Cl)cc1NC(=O)CCN1C(=O)C2C3CCC(C3)C2C1=O (stereo not given)	-1.9%	-0.4%
Cc1ccc(C2CC(c3ccc(F)cc3)Nc3nc(N)nn32)cc1 (stereo not given)	-10.8%	-14.7%
Cc1onc(-c2ccccc2)c1C(=O)Nc1ccc(-c2nnc3n2CCCCC3)cc1	i	-12.6%
CCOc1ccc(CCNC(=O)CN2C(=O)NC3(CCCc4ccccc43)C2=O)cc1OCC (stereo not given)	-14.1%	-5.7%
CCCC(=O)NC(=S)Nc1c(C)cc(Br)cc1C	-12.9%	-17.6%
Cc1cccc(OCC(=O)N2CCN(Cc3cc(=O)n4nc(-c5ccccc5Cl)sc4n3)CC2)c1	-3.4%	-5.1%
CC1(C)C(C=C(Cl)Cl)C1C(=O)N1CCN(Cc2ccccc2)CC1 (stereo not given)	-8.2%	-2.3%
C/C(=N/NC(=O)c1cccc(N2CCCC2=O)c1)c1ccncc1	i	-3.3%
CC(C)C(=O)Nc1c(C(=O)c2ccc(F)cc2)oc2ccccc12	i	-19.2%
O=C(NC1CCN(C(=O)Nc2ccc(F)cc2)CC1)c1cccc(F)c1	67.9%[activator]	-9.8%
COCCN1CCN(c2cc(-c3ccccc3)nc3cc(-c4cccc(F)c4)nn23)CC1	?	?
O=C(CSc1nc2c(cnn2-c2ccccc2)c(=O)[nH]1)NCC1CCCO1 (stereo not given)	i	-1.1%
O=C(Nn1c(-c2ccncc2)nc2ccccc2c1=O)c1ccccc1Br	-24.6%	-15.9%
CC(NC1CCN(Cc2ccccc2)CC1)c1ccc(F)cc1 (stereo not given)	-21.1%	-10.7%
CCOC(=O)c1ccc(S(=O)(=O)N2CCN(CC(O)COc3cccc(C(C)=O)c3)CC2)cc1 (stereo not given)	i	-13.2%
COc1ccc(S(=O)(=O)N2CCOC2CNC(=O)C(=O)NCC(C)C)cc1OC (stereo not given)	i	1.5%
Nc1ncnc2c1C1(CCCCC1)Cc1ccccc1-2	-0.7%	-10.5%
C=CCn1c(SCCC(=O)O)nc2c1c(=O)n(C)c(=O)n2C	i	-2.5%
CCOC(=O)c1c(-c2cccs2)csc1NC(=O)CN1CCOCC1	i	-7.6%
COc1ccc(NC(=S)N2CCN(C/C=C/c3ccccc3)CC2)c(OC)c1	-16.6%	-8.2%
O=C(Nc1cccnc1)c1ccc2snnc2c1	-3.2%[1.46 µM]	-5.2%
Cc1cccc(C(=O)N[C@H](C(=O)Nc2ccc3c(c2)OCO3)C(C)C)c1	i	-9.0%
O=C(CCNC(=O)c1ccccc1)NCCc1ccc(Cl)cc1	-5.2%	0.7%
CC(=O)N1CCc2c(sc(NC(=O)CN3C(=O)c4ccccc4C3=O)c2C(N)=O)C1	i	-17.7%
COc1ccc(Cc2nnc(NC(=O)C(C)(C)C)s2)cc1	i	-6.9%
CCCc1cc(=O)n2[nH]c(NC(=O)c3ccco3)nc2n1	-11.6%	-5.6%
CC(=O)Nc1sc2c(c1C(c1ccccc1Cl)N1CCN(CCO)CC1)CCCC2 (stereo not given)	-19.8%	-10.5%
COC(=O)c1cccc(NC(=O)CCN2C(=O)NC(C)(C)C2=O)c1	i	-1.0%
O=C1c2cc(O)c(O)cc2OC(c2ccc(O)c(O)c2)C1O (stereo not given)	-11.6%	-11.1%
C[C@H](CO)N1C[C@H](C)[C@@H](CN(C)Cc2ccc3c(c2)OCO3)OCc2cnnn2CCCC1=O	-12.4%	-13.7%
CC(=O)c1cccc(NC(=O)CN2CCc3cc4c(cc3C2C)OCCCO4)c1 (stereo not given)	-6.7%	-16.5%

Another view of 7 compounds above.
Values run as follows: Vaccinia mCherry	VACV Venus inh
Cc1cccc(C(=O)N[C@H](C(=O)Nc2ccc3c(c2)OCO3)C(C)C)c1
 : i	-9.0%
O=C(CCNC(=O)c1ccccc1)NCCc1ccc(Cl)cc1
 : -5.2%	0.7%
CC(=O)N1CCc2c(sc(NC(=O)CN3C(=O)c4ccccc4C3=O)c2C(N)=O)C1
 : i	-17.7%
COc1ccc(Cc2nnc(NC(=O)C(C)(C)C)s2)cc1
 : i	-6.9%
CCCc1cc(=O)n2[nH]c(NC(=O)c3ccco3)nc2n1
 : -11.6%	-5.6%
CC(=O)Nc1sc2c(c1C(c1ccccc1Cl)N1CCN(CCO)CC1)CCCC2 (stereo not given)
 : -19.8%	-10.5%
COC(=O)c1cccc(NC(=O)CCN2C(=O)NC(C)(C)C2=O)c1
 : i	-1.0%

Remaining list, next part
SMILES	Vaccinia mCherry	VACV Venus inh
Cn1c(CC(=O)Nc2ccccc2F)nnc1SCC(=O)Nc1nccs1	-19.0%	-6.6%
Oc1ccc(C[C@H]2CN([C@@H](Cc3cccc(O)c3)CN3CCC[C@@H]3CN3C(=S)NC[C@@H]3Cc3ccccc3)C(=S)N2CC2CCCCC2)cc1	?	?
COc1ccccc1Nc1nc2nonc2[nH]c1=O	-3.8%	-9.8%
CC(C)(C)C(=O)c1cn(Cc2ccccc2)c2ccccc12	-12.6%	-5.0%
COc1ccc(C(=O)N/N=C(\N)c2cc3ccccc3oc2=O)cc1	-27.3%	2.0%
N/C(=N\OC(=O)COc1ccc(Cl)cc1Br)c1cccnc1	8.9%	0.2%
CN(CC(=O)Nc1ccc(F)cc1)CC(=O)Nc1ccc(Cl)c(S(=O)(=O)N2CCOCC2)c1	-11.8%	-16.1%
Cn1ccnc1C(O)c1ccccc1 (stereo not given)	i	-5.6%
Cc1ccc2ncc(C(=O)Nc3ccc(F)cc3F)c(=O)n2c1	-1.5%	-2.2%
O=c1oc2ccc(Br)cc2cc1-c1nc2ccccc2o1	-14.7%	-2.1%
Cc1cc(C)cc(-n2ccn3c(CC(C)(C)CC(=O)O)nnc3c2=O)c1	-9.4%	-1.5%
COc1cc(C2CC(=O)Oc3c(C(CCN4CCCC(C)C4)c4ccc(N(C)C)cc4)c(OC)cc(OC)c32)cc(OC)c1OC (stereo not given)	-11.8%	?
CCOC(=O)C1CCCN(C(=O)C(=O)Nc2ccc3nc4n(c(=O)c3c2)CCCCC4)C1 (stereo not given)	-3.5%	-7.6%
CCCCOc1ccc(/C=C/C(=O)OCC(=O)NC(=O)NCC(C)C)cc1OCC	i	-12.3%
C/C(=N\N1CCN(c2ccc(Cl)cc2)CC1)c1cccs1	i	-1.7%

Source: PubChem
